# Screens (PubChem BioAssay)
# Mtb bLac sens: beta-lactam sensitization of Mtb H37Rv | M. tuberculosis H37Rv growth with meropenem, percent inhibition; hits of this screen are not shown here | 0.27% of 330,000 active | inhibition, % at 25 µM;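 active means about 74% or more and at least 40 points above the plate without the antibiotic, then above 30% in a dose series; inconclusive means first-round hits that could not be retested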;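 further: growth measured after seven days incubation then overnight dye step; 0% = bacteria only wells and 100% = bacteria with antibiotic; twin plates without the antibiotic show which effects depend on it; some results filed as inactive read as strong as hits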
# RecA intein inh: inhibitors of M. tuberculosis RecA intein splicing | cell-free RecA intein splicing, fluorescence | inhibition, %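 (about 9 µM by stock and volumes)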 | 0.75% of 290,000 active | AID 2221; in the data active means inhibition above about 30%; inconclusive means no clear call, values can overlap the other calls;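 further: 0% = vehicle wells and 100% = reference inhibitor control wells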
# Target sequence (P9WHJ3 whole entry, looked up): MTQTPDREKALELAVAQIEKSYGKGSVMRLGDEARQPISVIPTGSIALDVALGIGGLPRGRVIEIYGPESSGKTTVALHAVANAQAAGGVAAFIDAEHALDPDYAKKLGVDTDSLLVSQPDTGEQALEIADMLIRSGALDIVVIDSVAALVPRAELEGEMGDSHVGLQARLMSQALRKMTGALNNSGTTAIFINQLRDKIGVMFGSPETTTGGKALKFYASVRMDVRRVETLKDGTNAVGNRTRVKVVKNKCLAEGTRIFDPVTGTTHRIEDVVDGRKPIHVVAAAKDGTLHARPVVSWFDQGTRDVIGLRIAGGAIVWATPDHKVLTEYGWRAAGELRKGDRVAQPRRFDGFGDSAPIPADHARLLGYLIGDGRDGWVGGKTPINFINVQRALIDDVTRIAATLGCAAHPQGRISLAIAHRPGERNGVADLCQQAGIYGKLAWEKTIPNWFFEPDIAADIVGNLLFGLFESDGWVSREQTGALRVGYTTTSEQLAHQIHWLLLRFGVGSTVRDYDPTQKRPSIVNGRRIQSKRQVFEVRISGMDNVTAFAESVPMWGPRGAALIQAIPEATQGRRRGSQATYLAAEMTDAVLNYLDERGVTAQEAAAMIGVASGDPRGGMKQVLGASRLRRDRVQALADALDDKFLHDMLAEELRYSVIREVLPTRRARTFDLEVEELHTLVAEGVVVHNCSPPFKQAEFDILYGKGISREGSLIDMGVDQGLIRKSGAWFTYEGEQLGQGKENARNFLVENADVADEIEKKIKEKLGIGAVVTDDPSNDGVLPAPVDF
# Mtb growth: M. tuberculosis H37Rv growth inhibitors, H37Rv strain (AID 1626); M. tuberculosis H37Rv growth inhibition; higher % means a stronger effect; inhibition, % at 10 µM; hits with a dose series show IC50 in µM; 0.95% of 220,000 active;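 active means confirmed in a dose series; inconclusive means inhibition above 80% but not taken into the dose series; inactive means below 80% or under 30% at every dose of the series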;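 further: bacteria incubated seven days before Alamar blue readout; 0% = bacteria only wells and 100% = bacteria with antibiotic wells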
# Arbovirus anti: antivirals against arbovirus infection; arbovirus infection cell-based antiviral screen; inhibition, % at 10 µM; 0.37% of 200,000 active; AID 1251;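 active means inhibition from about 30%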;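 further: bluetongue infection of BSR cells; cell survival read as ATP light after 72 h; 0% = infected wells without compound and 100% = uninfected wells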
# YopH inh: inhibitors of Yersinia enterocolitica YopH tyrosine phosphatase | inhibition, %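 (about 10 µM by stock and volumes)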 | fluorescence Ex485/Em525 | AID 898 | 0.16% of 140,000 active;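 active means inhibition of 50% or more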;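 further: controls were vehicle for no effect and minimum signal wells for full effect; inactives centre near -20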
# Arbovirus anti repeat: also measured in Arbovirus anti; calls as there; inhibition, %; measured here: 10K subset replicate screen; many hits read low in the repeat;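 first of two repeat runs on a subset; 0% = infected and 100% = uninfected wells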
# The depositor's hits bear a star; u = inconclusive; x = no result given. Some of the compounds tested (hit frequency here may not be typical).
SMILES,Mtb bLac sens,RecA intein inh,Mtb growth,Arbovirus anti,YopH inh,others
C[N+](C)(CC#Cc1ccccc1)CC(=O)c1ccccc1,8,-5.0,-6%,-6,-17,
Cc1ccc(N(C(=O)c2ccc(Br)o2)C2C=CS(=O)(=O)C2)cc1 (stereo not given),1,0.3,-1%,2,-34,
COc1cc(C2c3[nH]c4ccccc4c3C[C@@H]3C(=O)N(Cc4ccco4)CC(=O)N23)cc(OC)c1OC (stereo not given in full),33,4.4,x,x,x,
Cc1ccc(/C=N/NC(=O)CSc2nnc(-c3ccc(Cl)cc3)n2-c2ccccc2)o1,-4,0.8,-4%,11,-25,
Clc1cccc(Cl)c1/C=C/c1ccn[nH]1,8,7.4,x,x,x,
CC1CCC(NC(=O)c2ccc(NC(=O)CC3SC(N4CCCC4)=NC3=O)cc2)CC1 (stereo not given),-3,-3.7,x,x,x,
COC(=O)c1cc(OC)nc2ccc(Br)cc12,-3,x,-8%,x,x,
CCOC(=O)Oc1ccc2c(c1)C(C)=CC(C)(C)N2C(=O)OCC,-4,1.2,x,1,6,
O=S(=O)(NC1c2cccc3cccc(c23)C1N1CCNCC1)c1ccccc1 (stereo not given),1,1.2,-9%,-11,-38,Arbovirus anti repeat=-9
CCOC(=O)C(=CNc1ccccc1Cl)C(=O)OCC,x,0.1,16%,x,x,
NC(=O)c1ccc(Oc2ccc(Cl)cc2)c([N+](=O)[O-])c1,-17,1.0,3%,x,x,
COc1ccc(CN2CCN(S(=O)(=O)c3ccc(C)cc3)CC2)cc1OC,3,-1.4,x,x,x,
CC1CCN(CCNC(=O)CN(C)S(=O)(=O)c2cccc3nsnc23)CC1,3,0.9,-7%,0,-21,
Cc1ccsc1C(=O)NNC(=O)CCN1CCN(c2ccccc2)CC1,-4,-2.7,x,x,x,
CC1CCCN(c2nc3nonc3nc2Nc2ccccc2F)C1 (stereo not given),1,4.9,6%,4,x,

# Of the compounds above, 2 have an NH in an aromatic ring.
SMILES,Mtb bLac sens,RecA intein inh,Mtb growth,Arbovirus anti,YopH inh,others
COc1cc(C2c3[nH]c4ccccc4c3C[C@@H]3C(=O)N(Cc4ccco4)CC(=O)N23)cc(OC)c1OC (stereo not given in full),33,4.4,x,x,x,
Clc1cccc(Cl)c1/C=C/c1ccn[nH]1,8,7.4,x,x,x,

# New compounds follow
SMILES,Mtb bLac sens,RecA intein inh,Mtb growth,Arbovirus anti,YopH inh,others
Cc1c(Cl)cccc1NC(=O)c1cccnc1,6,-0.3,x,x,x,
CCCCCCCCCCOC(=O)Cn1c(COc2ccccc2C)[n+](C)c2ccccc21,81,57*,x,x,x,
COc1cc(CC(=O)OCC(=O)Nc2ccc(S(=O)(=O)N3CCCC3)cc2)cc(OC)c1OC,-4,0.9,-7%,6,-2,
CCOC(=O)c1ccc(OC(=O)CCCCCN=C(N)N)cc1,-5,0.7,31%,x,x,
O=C(Nc1ccc(C(F)(F)F)cc1-c1ccccc1)c1ccccc1,4,2.7,-1%,-1,-19,
Cc1ccc(N2CCC(N3CCN(C)C(CCO)C3)CC2)cc1 (stereo not given),-4,-2.2,x,x,x,
CN(C)CCCNC(=O)/C(=C\C=C\c1ccccc1)NC(=O)c1ccc([N+](=O)[O-])cc1,4,3.3,-6%,x,x,
CC(C)Cc1nnc(NC(=O)CCC(=O)NCCc2ccccc2)s1,11,0.3,x,x,x,
O=C(c1ccc(Cn2cnnn2)cc1)N1CCCC(Nc2ccc(F)c(F)c2)C1 (stereo not given),5,-2.5,x,x,x,
Cc1ccc(SC(=O)c2c([N+](=O)[O-])c(C)nn2C)cc1,-7,1.8,8%,x,x,
C[C@H]1[C@@H](c2ccccc2)O[C@@H](c2ccccc2Br)N1C,-13,-0.3,x,x,x,
Cc1cn2c(=O)c(C(=O)N3CCN(c4ccccc4Cl)CC3)cnc2s1,-12,-1.2,x,x,x,
CC1Cc2nc(SCC(=O)N3CCCc4ccccc43)n(C)c(=O)c2S1 (stereo not given),0,-0.3,9%,7,-8,Arbovirus anti repeat=-6
COCCCNC(NC(=O)c1ccc(Br)cc1)C(Cl)(Cl)Cl (stereo not given),1,0.2,2%,-1,-12,
COc1ccccc1CNCc1cc(OC)c(OC)c(OC)c1,-4,1.8,51%,-8,x,
Cc1noc(NS(=O)(=O)c2ccc(N/C=C/C(=O)c3ccncc3)cc2)c1C,8,0.7,x,-1,-52,
CC(C)(C)NC(=O)c1ccc(NC(=O)CSc2ccccc2)cc1,7,-1.4,5%,4,x,
c1ccc(Cn2c(NCc3ccco3)nc3ccccc32)cc1,8,3.7,-1%,-3,-5,
CN(C)CCNC(=O)CN1C(=O)CSc2ccc(S(=O)(=O)N3CCCCC3)cc21,-3,0.7,x,x,x,
Cc1cnc(NC(=O)CSc2nnc(CNc3ccc(F)cc3)n2CC2CCCO2)s1 (stereo not given),3,-2.1,x,4,-29,
CCOc1cc(N2CCOCC2)c(OCC)cc1NC(=O)CN1C(=O)NC(CC(C)C)C1=O (stereo not given),-2,2.5,5%,9,x,
COc1ccc(C(=O)Cn2nnc(-c3ccccc3F)n2)cc1,2,0.6,3%,1,-39,
COc1cccc2[nH]c3c(N4CCC5(CC4)OCCO5)ncnc3c12,3,-2.9,1%,x,x,
O=C(O)/C=C/C(=O)Nc1ccc(C2(c3ccc(NC(=O)/C=C/C(=O)O)cc3)c3ccccc3-c3ccccc32)cc1,-2,71*,x,x,x,
Cc1ccc(C)c(OCCCN2CCCC2)c1,-4,-1.1,-2%,-2,-21,
Cc1csc(NC(=O)C2=NN(c3ccccc3)C(=O)CC2)n1,-4,2.9,3%,-3,x,
N#Cc1cccc(-n2c(-c3ccccc3)nnc2-c2ccccc2)c1C#N,4,0.7,4%,-21,21,
CS(=O)(=O)c1ccc(Cl)c(NC(=O)COC(=O)CNC(=O)c2ccc3ccccc3c2)c1,-5,-0.6,x,x,x,
CCOC(=O)C1=NNC2C(=O)N(CC)C(=O)C12 (stereo not given),-3,-0.4,8%,16,16,
O=C(OCc1ccccc1)/C(=C(\O)c1ccccc1Br)c1ccc(-c2ccccc2)cn1,98,1.4,x,x,x,
O=C(C1=C[C@H](c2ccc(C(F)(F)F)cc2)C[C@H](OCc2ccc(CO)cc2)O1)N1CCN(Cc2ccc3c(c2)OCO3)CC1,71,12,-10%,-12,x,
O=C(Cc1ccccc1)NCC(=O)OCC(=O)c1ccc(OC(=O)c2ccccc2)cc1,9,-0.5,-9%,4,-17,
Oc1ccc(CN2CCN(Cc3ccccc3)CC2)c2cccnc12,5,-22,-3%,-14,-13,
O=C(c1cc2ccccc2o1)N1CCN(S(=O)(=O)c2cccs2)CC1,-8,-1.5,4%,8,1,
O=C(Cn1cnc2c(nnn2Cc2ccc(F)cc2)c1=O)Nc1cccc(F)c1,0,x,2%,5,x,
O=C(Nc1ccc(N2CCOCC2)nc1)c1ccc(Cl)cc1,3,3.7,-6%,7,-33,
COc1cccc(NC(=O)CN(C)C(=O)c2ccc(N3CCOCC3)c([N+](=O)[O-])c2)c1,-11,-3.7,x,x,x,
COc1ccc(NCC(=O)N/N=C/c2ccc3c(c2)OCCO3)cc1,84,-6.0,u,-2,-25,
CC(C)(C)c1cc(C(=O)NNC(=O)c2ccc(C(F)(F)F)cc2)no1,95,3.4,2%,x,x,
O=S(=O)(c1cccc(Cl)c1)N1CCC(c2nc3ccccc3[nH]2)CC1,0,-0.2,x,x,x,
CNS(=O)(=O)c1cccc(C(=O)OCC(=O)Nc2ccc(Cl)cc2F)c1,4,0.0,-5%,x,x,
Cc1csc(NC(=O)c2cc(=O)[nH]c3ccccc23)n1,-6,x,-9%,x,x,
CCOc1ccccc1CN1CCCC(CNS(=O)(=O)c2ccc(OC)cc2)C1 (stereo not given),-5,-5.6,x,x,x,
COc1ccc(C2/C(=C(/O)c3ccc(Br)cc3)C(=O)C(=O)N2C)cc1 (stereo not given),24,1.0,x,x,x,
Cc1ccc(Oc2c(C)nc(-c3ccccc3)[nH]c2=O)cc1,-6,-1.0,-2%,x,x,
Cc1ccc(Cn2c(CN(C)Cc3ccccc3)nc3c2c(=O)n(C)c(=O)n3C)cc1,6,5.3,-6%,-2,-37,
CC1=NN(C(=O)c2ccccc2Br)C(O)(c2cccnc2)C1 (stereo not given),0,-0.7,-15%,9,-32,
Cc1ccc(-c2c[n+](CC(=O)OCc3ccccc3)c3n2CCC3)cc1,-2,2.9,-7%,1,-26,
CC(C)(C)NS(=O)(=O)c1ccc(NC(=O)Cc2ccccc2[N+](=O)[O-])cc1,5,1.1,-1%,8,x,
COc1ccc(C2CC2/C(=N/O)c2ccccn2)cc1 (stereo not given),0,2.4,2%,-8,x,
Cc1ccc(S(=O)(=O)N/N=C\c2cc3c(cc2Br)OCO3)cc1,2,1.7,-6%,-11,-24,
Cc1sc2ncnc(N3CCC(C(=O)NNC(=O)COc4ccccc4Cl)CC3)c2c1C,8,1.1,x,x,x,
Cc1ccc2cc(NC(=O)CC(CC(=O)O)c3ccccc3)ccc2n1 (stereo not given),-10,-1.0,x,x,x,
COC(=O)COc1cccc2c(=O)n(CC(=O)N3CCC(C)CC3)ccc12,-5,0.3,-10%,x,x,
O=C(NCc1ccc(F)cc1)c1cc2sccc2n1Cc1ccc(F)cc1,8,2.8,-6%,-1,-16,
CCNc1nc(C(=O)O)nc(N2CCOCC2)n1,-5,-0.7,2%,3,x,
COc1ccc(N2CCN(C(=O)CCC(=O)N3CC(C)Oc4ccccc43)CC2)cc1 (stereo not given),1,-2.6,x,x,x,
COC(=O)CCC(=O)OC1(C)C(=O)C=C2C=C(C3CC3)N(Cc3ccc(OC)cc3)C=C2C1=O (stereo not given),-2,-6.9,-11%,x,x,
COC(=O)C1=C(N)OC(C)=C(C(C)=O)C12C(=O)N(C)c1ccccc12 (stereo not given),-3,0.5,-14%,x,x,
Cc1nn(C2CCS(=O)(=O)C2)c(Cl)c1/C=C/C(=O)OCC(=O)c1cc(C)n(-c2ccc(F)cc2)c1C (stereo not given),18,0.9,9%,-1,-17,

# Other entries:
SMILES,Mtb bLac sens,RecA intein inh,Mtb growth,Arbovirus anti,YopH inh,others
COc1ccccc1C1CCN(Cc2ccc(C)cc2)CC1,82,-1.7,x,x,x,
Cc1cc(-c2nnc(SCC(=O)Nc3ccc(F)cc3F)n2N)n[nH]1,-1,0.6,x,x,x,
CC(=O)Nc1ccc(OCC(O)CN2C(C)CCCC2C)cc1 (stereo not given),-15,-1.3,-5%,-2,-9,
CCOC(=O)c1cnc2c(N=Nc3cccc(Cl)c3)c(N)nn2c1N,x,x,12%,-11,22,
COc1ccc(Cl)cc1NC(=O)CN1CCCCCC1,25,-1.8,10%,-2,x,
Cc1ccccc1C(=O)Nc1ccc2c(c1)C(=O)NC2=O,-3,-0.8,x,x,x,
Cc1ccc(-c2nnc(SCC(=O)N3CC(C)CC(C)C3)o2)cc1C (stereo not given),8,4.4,11%,2,-5,
Cc1cc(OCCn2ccnc2)cc(C(C)C)c1,0,0.1,-9%,2,-18,
Cc1nc(SCc2ccc([N+](=O)[O-])cc2)nc2ccccc12,5,0.4,-6%,-2,-39,
COc1cc(C2NC(=O)NC(C)=C2C(C)=O)ccc1O (stereo not given),-5,-2.5,6%,x,x,
CCCOc1ccc(-c2nc(N3CCN(C)CC3)c3ccccc3n2)cc1,26,-1.7,x,x,x,
Cc1cc(Br)ccc1NC(=O)CN(C)Cc1cccs1,2,5.5,x,x,x,
CC(C)C(=O)NNC(=O)c1csc(CS(=O)(=O)c2ccc(Cl)cc2)n1,-10,0.4,-12%,x,x,
Cc1[nH]ccc(=O)c1Cc1c(Cl)cccc1Cl,2,-0.1,x,x,x,
COc1ccc(C(=O)NC2CCN(C(=S)NCCc3ccccc3)CC2)cc1,3,-3.3,-7%,4,x,

# Three entries out of the list, ordered by heavy-atom count, smallest number first:
SMILES,Mtb bLac sens,RecA intein inh,Mtb growth,Arbovirus anti,YopH inh,others
Cc1[nH]ccc(=O)c1Cc1c(Cl)cccc1Cl,2,-0.1,x,x,x,
COc1cc(C2NC(=O)NC(C)=C2C(C)=O)ccc1O (stereo not given),-5,-2.5,6%,x,x,
CC(=O)Nc1ccc(OCC(O)CN2C(C)CCCC2C)cc1 (stereo not given),-15,-1.3,-5%,-2,-9,

# Following part.
SMILES,Mtb bLac sens,RecA intein inh,Mtb growth,Arbovirus anti,YopH inh,others
CC(NC(=O)C1CCN(c2nnc(N3CCCC3=O)s2)CC1)c1ccccc1 (stereo not given),-8,0.9,x,x,x,
O=C(NCc1ccc(F)cc1)C1CCCN1C(=O)Nc1ccccc1 (stereo not given),-30,1.8,x,x,x,
Cc1cccc(N2C(=O)c3cccnc3C2=O)c1,-6,0.9,9%,-1,-2,
Cc1ccc(Nc2nc3ccc(Cl)cc3n3cnnc23)cc1F,14,-4.2,x,x,x,
O=[N+]([O-])c1ccc(/C=N/n2c(COc3ccccc3)n[nH]c2=S)cc1,-12,22,-2%,12,-19,
COc1ccc(CN=C2NN=C(c3cccc(OC)c3)CS2)cc1,0,5.9,8%,-3,x,
